Screening data as filed in PubChem.
SARS PLP yeast = inhibitors of SARS-CoV papain-like protease in yeast; S. cerevisiae expressing SARS-CoV PLpro, growth rescue; control for the full effect not named in the record; AID 485353; Potency, µM (highest dose often 32.9 µM), for inactives: top-dose activity, positive = growth rescue; 0.19% of 330,000 active; active means well fitted rising curve with a large enough effect; inconclusive means small, poorly fitted or top-dose-only effect; inactive means no such curve, though single readings can be large or run the other way; further: 0% is about no effect; nearly all actives have a fitted effect of over 55% in size; growth read by luminescence after 48 h
MARV entry inh = inhibitors of Marburg virus binding or cell entry. Marburg virus pseudotyped entry inhibition, cell reporter; control for the full effect not named in the record; about a third of the inactives were read at about 46 µM. Potency, µM (top dose mostly 37.8 µM), without a hit: at the top dose activity change, negative = inhibition, usual class: inhibitors. 1.8% of 300,000 active. AID 540276; active = well fitted inhibition curve with a large enough effect; inconclusive = small, poorly fitted or top-dose-only effect, or effect the other way; inactive = flat fitted curve, though single readings scatter; tested in HEK293 cells; about a fifth of its hits are not listed in these tables; further: on the % scale 0 is the no-effect control and ±100 the full control effect; luciferase read-out
LASV entry inh = Lassa virus entry inhibition; 1.2% of 300,000 active; Potency, µM (highest dose often 37.9 µM), inactives show at the top dose activity change, negative = inhibition, most hits filed as inhibitors; Lassa virus pseudotype entry inhibition, cell reporter; control for the full effect not named in the record; active means well fitted inhibition curve with a large enough effect; inconclusive means small, poorly fitted or top-dose-only effect, or effect the other way; inactive means flat fitted curve, though single readings scatter; tested in HEK293 cells; further: on the % scale 0 is the no-effect control and ±100 the full control effect; nearly all actives have a fitted effect of over 50% in size; luciferase read-out
Cruzain noTriton = blocks cruzain activity in detergent-free assay; P25779; purified cruzain, Z-FR-AMC fluorescence, no detergent; AID 1476; Potency, µM, for inactives: max response, negative = inhibition, most hits filed as inhibitors; 2.3% of 200,000 active;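 further: plate controls were enzyme without inhibitor for no effect and buffer without enzyme for full effect; nearly all actives have a fitted effect of over 40% in size; top concentration of the series not given in the record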
Target sequence (P25779 123-467 limits assumed): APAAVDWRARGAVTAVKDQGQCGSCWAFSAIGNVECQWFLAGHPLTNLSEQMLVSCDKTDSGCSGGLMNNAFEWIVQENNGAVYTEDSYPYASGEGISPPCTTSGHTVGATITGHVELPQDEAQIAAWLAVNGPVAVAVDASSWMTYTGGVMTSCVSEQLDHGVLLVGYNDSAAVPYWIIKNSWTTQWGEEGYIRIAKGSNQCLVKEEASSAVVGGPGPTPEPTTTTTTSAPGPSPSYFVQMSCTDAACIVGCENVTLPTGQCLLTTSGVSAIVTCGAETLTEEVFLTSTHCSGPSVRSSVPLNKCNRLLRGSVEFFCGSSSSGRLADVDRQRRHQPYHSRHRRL
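Detergent-free condition (0.00005% Triton X-100) in acetate buffer pH 5.5 with DTT. 1.5 nM enzyme and compound were pre-mixed 15 min, then 2 uM Z-FR-AMC substrate added; reaction progress from fluorescence change between first and third reads (60 s).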
2A StopGo = FMDV 2A StopGo reporter, luciferase signal; human cells with a luciferase reporter of 2A StopGo recoding; control for the full effect not named in the record; Potency, µM (titrated, usually from 57.9 µM), for the others: at the highest dose signal change, negative = less light; 1.2% of 410,000 active; AID 1159524; active = well fitted falling curve with a large enough effect; inconclusive = small, poorly fitted or top-dose-only effect; inactive = no such curve, though single readings can be large or run the other way; tested in HEK293T cells; further: on the % scale 0 is the no-effect control and ±100 the full control effect; nearly all actives have a fitted effect of over 45% in size; luciferase light after 4 h
NS1 function inh = inhibitors of influenza NS1 protein function | S. cerevisiae slowed by influenza A NS1, growth recovery by OD600 | Potency, µM (series often up to 46.1 µM), for inactives: at the top dose activity, positive = more growth | 0.4% of 270,000 active | AID 2326; active means well fitted rising curve with a large enough effect; inconclusive means small, poorly fitted or top-dose-only effect; inactive means no such curve, though single readings can be large or run the other way; further: nearly all actives have a fitted effect of over 50% in size
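S. cerevisiae expressing influenza A NS1, grown in glucose, washed, then diluted 1:100 into pH 6.0 -URA galactose medium with 23 nl compound. Growth recovery read as OD600; NS1-free strain serves as control.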
Cruzain Triton = cruzain (T. cruzi) inhibition with detergent; 0.43% of 200,000 active; AID 1478; purified cruzain, Z-FR-AMC fluorescence, 0.01% Triton; Potency, µM, inactives show max response, negative = inhibition, hits mostly inhibitors;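 further: plate controls were neutral wells for no effect and buffer without enzyme for full effect; nearly all actives have a fitted effect of over 40% in size; top concentration of the series not given in the record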
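Read-out: AMC fluorescence (360 nm excitation, 450 nm emission), four reads over 2 min, first-to-third difference used. Conditions: cruzain 1.5 nM, Z-FR-AMC 2 uM, pH 5.5 acetate, 5 mM DTT, 0.01% Triton X-100.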
RE007 growth inh = less growth of the S. pombe RE007 Vpr strain; S. pombe RE007 Vpr strain, BacTiter-Glo ATP luminescence, 24 h; control for the full effect not named in the record; 0.21% of 360,000 active; Potency, µM (top dose mostly 92.2 µM), inactives show top-dose activity change, negative = less growth; active = well fitted falling curve with a large enough effect; inconclusive = small, poorly fitted or top-dose-only effect; inactive = no such curve, though single readings can be large or run the other way;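 further: on the % scale 0 is the no-effect control and ±100 the full control effect; nearly all actives have a fitted effect of over 50% in size; the assay follows cell death caused by Vpr and the record does not say whether a fall means rescue or toxicity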
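Fission yeast strain RE007, carrying one chromosomally integrated HIV-1 vpr copy, was seeded at OD 0.01 in PMG+AL medium with 23 nL pinned compound. After 24 h at 30 °C and 99% humidity, viability was read by BacTiter-Glo luminescence.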
* = called active by the depositor; ? = inconclusive; · = not tested or not shown; & = joins results of further samples; [ ] = remark or other dose. Unless noted, the call rests on the fitted dose curve; in most records, active means well fitted curve in the direction sought with a large enough effect; inconclusive means small, poorly fitted or top-dose-only effect, or another doubt; inactive means no such curve, though single readings can be large; an effect the other way counts as inactive or inconclusive. Potency means the concentration at half of the fitted maximal effect.

SMILES	SARS PLP yeast	MARV entry inh	LASV entry inh	Cruzain noTriton	2A StopGo	NS1 function inh	Cruzain Triton	RE007 growth inh
COc1ccc(-c2n[nH]c3c2C(c2ccc(OC)c(OC)c2)N(c2ccccc2)C3=O)cc1 (stereo not given)	-1%	7.3µM*	?	?	?	16%	-2.3%	-5%
O=C(c1ccccc1)N1CC(COc2ccccc2)OC(c2ccco2)O1 (stereo not given)	3%	12%	-2%	-9%	-3%	-33%	-3.2%	-6%
NS(=O)(=O)c1ccc(NC(=S)NC2CCCC2)cc1	0%	?	10%	2%	0%	7%	-0.8%	2%
N#Cc1cn(Cc2ccco2)c(=O)[nH]c1=O	·	-3%	9%	·	-1%	·	·	-20%
O=c1[nH]cnc2ccc([N+](=O)[O-])cc12	0%	·	·	·	-13%	-59%	·	-9%
CCc1ccc2c(COC(=O)C3CC(=O)N(CCc4ccccc4)C3)cc(=O)oc2c1 (stereo not given)	-2%	-28%	14%	·	-16%	·	·	-11%
O=C1NC(=O)C2(N1)c1ccccc1-c1ccccc12	·	22%	18%	·	-21%	·	·	-12%
Cn1cc(CCNC(=O)CC2C(=O)NCCN2CC(c2ccccc2)c2ccccc2)cn1 (stereo not given)	-1%	·	·	·	-18%	0%	·	8%
CCOC(=O)c1cnn(-c2ccccc2)c1-c1ccccc1	-18%	?	-18%	-24%	?	-73%	-6.8%	20%
Cc1ccccc1OCCn1c(-c2ccc(Cl)cc2)nc2ccccc2c1=O	·	6%[46.1 µM]	-10%[46.1 µM]	1%	-6%	·	-0.9%	·
C=CCn1c(SCC(=O)Nc2nnc(C)s2)nnc1-c1cccnc1	5%	17%[46.1 µM]	·	·	-6%	·	·	-6%
Cc1cccc(C(=O)N[C@H](C(=O)OCC(=O)NC(=O)c2cccn2C)C(C)C)c1	14%	3%[46.1 µM]	-8%[46.1 µM]	-4%	0%	-4%	-4.7%	-2%
CC(NC(=O)C(Cc1ccccc1)N1C(=O)C2C3CCC(C3)C2C1=O)c1ccccc1 (stereo not given)	4%	-1%	?	-9%	19%	-2%	1.8%	2%
Cc1ccccc1Cn1c(=O)n(C)c(=O)c2sccc21	7%	-4%	2%	·	?	14%	·	45%
C/C(CC(=O)Nc1ccc([N+](=O)[O-])cc1)=N/NC(=O)C1CC12CCC2 (stereo not given)	-4%	11%[46.1 µM]	8%	·	-17%	·	·	-1%
COc1ccc(NC(=O)CN2C(=O)C(C)SC(C)C2=O)cc1 (stereo not given)	-8%	1%[46.1 µM]	-5%[46.1 µM]	0%	8%	5%	-1.9%	-10%
Cc1cccc(NC(=O)CSc2nsc(SCC(=O)Nc3cccc(C)c3)c2C#N)c1	13%	2%&2%	2%	-19%	2%	21%	-2.8%	24%
Cc1ccc(NC(=O)Cc2ccc(-n3cccc3)cc2)c(C)c1	4%	5%	14%	?	-4%	-9%	-1.6%	8%
Cc1ccc(/C=C/C(=O)Nc2ccc([N+](=O)[O-])c(NC(=O)/C=C/c3ccc(C)o3)c2)o1	?	8%	2%	-22%	-13%	23%	-13%	13%
COc1ccc(Cn2c(=O)[nH]c3cc(C(=O)N4CCN(c5cc(C)ccc5C)CC4)ccc3c2=O)cc1	·	?	21%[46.1 µM]	-1%	-21%	·	-2.4%	·
Cc1noc(C)c1COC(=O)c1ccc2c(c1)S(=O)(=O)c1ccccc1C2=O	6%	17%	7%	-7%	-17%	-5%	-2.4%	-8%
COc1ccc(N(C(=O)CNC(=O)c2ccco2)C(C(=O)NC2CCCC2)c2ccco2)cc1 (stereo not given)	1%	?	13%	·	-6%	4%	·	-13%
Cc1ccc(N(C(=O)c2snc(C(N)=O)c2N)C(CC(C)C)C(=O)NC2CCCC2)cc1 (stereo not given)	3%	?	-22%	·	-24%	12%	·	3%
CCOc1ccccc1C(=O)OCC(=O)Nc1ncc(C(F)(F)F)cc1Cl	24%	0%	-1%	-2%	-10%	-4%	0.2%	-23%
COc1ccc(Oc2ccc(/C=C/C(=O)c3ccc(O)cc3)cc2[N+](=O)[O-])cc1	-13%	?	13µM*	-10%	?	11%	-0.6%	·

Laid out differently: four of the compounds above
Under each structure – SARS PLP yeast	MARV entry inh	LASV entry inh	Cruzain noTriton	2A StopGo	NS1 function inh	Cruzain Triton	RE007 growth inh
- COc1ccc(Cn2c(=O)[nH]c3cc(C(=O)N4CCN(c5cc(C)ccc5C)CC4)ccc3c2=O)cc1
 : ·	?	21%[46.1 µM]	-1%	-21%	·	-2.4%	·
- Cn1cc(CCNC(=O)CC2C(=O)NCCN2CC(c2ccccc2)c2ccccc2)cn1 (stereo not given)
 : -1%	·	·	·	-18%	0%	·	8%
- C/C(CC(=O)Nc1ccc([N+](=O)[O-])cc1)=N/NC(=O)C1CC12CCC2 (stereo not given)
 : -4%	11%[46.1 µM]	8%	·	-17%	·	·	-1%
- Cc1cccc(NC(=O)CSc2nsc(SCC(=O)Nc3cccc(C)c3)c2C#N)c1
 : 13%	2%&2%	2%	-19%	2%	21%	-2.8%	24%

Continued:
SMILES	SARS PLP yeast	MARV entry inh	LASV entry inh	Cruzain noTriton	2A StopGo	NS1 function inh	Cruzain Triton	RE007 growth inh
COc1ccc(-c2csc(N(CCCN(C)C)C(=O)c3ccc(C(C)(C)C)cc3)n2)cc1	-6%	?	?	·	-20%	15%	·	-17%
CCC(=O)c1ccc(OCC(=O)OCC(=O)Nc2c(C)n(C)n(-c3ccccc3)c2=O)cc1	-5%	31%	17%	·	6%	·	·	-8%
CCOc1cc(/C=C2/N=C(C)C(C(=O)OC)=C2O)ccc1O	2%	·	·	·	29%	-5%	·	-6%
COCCN1C(=O)c2oc3c(C)cc(C)cc3c(=O)c2C1c1cccc(O)c1 (stereo not given)	4%	5%	-11%	?	-23%	?	0.7%	29%
CCOC(=O)c1sc(=S)n(-c2ccc(OC)cc2)c1N	1%	17%[14.2 µM]	1%	·	5%	4%	·	4%
Cc1cc(C(=O)Nc2ccc(Nc3ccccc3)cc2)ccc1[N+](=O)[O-]	13%	0%	2%	·	-23%	13%	·	-6%
Clc1ccc(-c2nc(NCCN3CCOCC3)c3ccccc3n2)cc1	-8%	?	4%	2%	6%	-113%	-5.0%	-6%
COc1ccc(CN2CCCC(C(=O)c3ccc(Cl)cc3)C2)c(OC)c1 (stereo not given)	1%	?	?	·	-25%	7%	·	-3%
O=C(NCc1ccccc1Cl)c1nnc(Cc2ccc(Cl)cc2)o1	·	-17%[46.1 µM]	22%[46.1 µM]	-6%	-9%	·	-0.9%	·
Cc1ccc(NC(=O)CN2C(=O)CCSc3ccc(S(=O)(=O)N4CCCC4)cc32)cc1	3%	-1%&-1%[46.1 µM]	7%&-7%[46.1 µM]	-4%	8%&-1%	-1%	-0.4%	-1%
CC1CCN(C(=O)CSc2nnc(Cc3cccn3C)n2-c2ccc(F)cc2)CC1	0%	·	·	?	-24%	19%	-0.1%	-15%
O=C(NCC(=O)N1CCN(S(=O)(=O)c2ccccc2F)CC1)c1ccc(Br)o1	25%	1%	11%	·	-11%	9%	·	-17%
COC(=O)CN1C(=O)C2(C(C#N)=C(N)Oc3ccccc32)C2=C1CC(C)(C)CC2=O (stereo not given)	3%	0%	-6%	2%	-9%	3%	0.6%	7%
Cc1nnc(SCC(=O)NC2CCC(C)CC2)s1 (stereo not given)	-2%	?	-10%	·	12%	·	·	-2%
S=c1[nH]nc(-c2ccco2)n1/N=C/c1c(Cl)cccc1Cl	0%	·	·	·	-8%	2%	·	0%
Cc1cc(Cl)ccc1NNC(N)=S	-19%	?	-13%	·	-18%	-49%	·	16µM*
COc1ccc(S(=O)(=O)N2CCC(C(=O)N(CC(C)C)C3CCS(=O)(=O)C3)CC2)cc1OC (stereo not given)	-4%	12%[46.1 µM]	?	·	-13%	·	·	-10%
CCOc1ccc(-n2c(O)c(/C=N/c3ccnn3Cc3ccncc3)c3ccccc3c2=O)cc1	-2%	-15%[46.1 µM]	?	·	-4%	·	·	12%
Cc1ccc(C(=O)N2CC2C)cc1 (stereo not given)	·	4%	?	·	15%	·	·	-21%
Cn1c(=O)c2c(nc(N3CCN(Cc4ccccc4)CC3)n2CC(=O)c2ccccc2)n(C)c1=O	·	-24%	-42%[14.3 µM]	·	-10%	·	·	-11%
O=C(C1CCC1)N1CCN(c2ccccc2)CC1	7%	-20%[46.1 µM]	11%[46.1 µM]	·	-3%	1%	·	-6%
CCN(CCNC(=O)C1CCN(Cc2nc(-c3cccc(Cl)c3)oc2C)CC1)c1ccccc1	-2%	?	?	-1%	40µM*	-41%	-4.3%	11%
COc1ccc(-c2csc3ncnc(N4CCN(c5ccccc5)CC4)c23)cc1	-12%	?	?	·	18µM*	2%	·	2%
CCC(Oc1ccccc1C)C(=O)Nc1ccc(S(=O)(=O)Nc2cc(C)on2)cc1 (stereo not given)	-4%	-9%[46.1 µM]	0%[46.1 µM]	·	-2%	19%	·	-3%
COc1ccc(C(CC(=O)O)NC(=O)c2sc3ccccc3c2Cl)cc1 (stereo not given)	-14%	10%[46.1 µM]	0%	-3%	-1%	1%	-4.4%	-11%
COc1ccc(/C=C2\SC(=O)N(CC(=O)Nc3cccc(C)c3)C2=O)cc1O	0%	7%[46.1 µM]	?	·	8%	23%	·	2%
COc1ccc(-c2noc(-c3ccccc3C(=O)NCc3ccco3)n2)cc1OC	1%	?	-8%	-15%	1%	-11%	4.1%	-10%
O=C(Cn1c(=S)[nH]c2ccccc2c1=O)N1CCN(c2ccc(F)cc2)CC1	0%	-3%[46.1 µM]	-3%	·	-24%	·	·	-1%
COc1ccccc1-n1nnnc1SCC(=O)NC1CC1	-1%	-13%[46.1 µM]	1%	·	-12%	·	·	-11%

Pulled one by one from the list above:
SMILES	SARS PLP yeast	MARV entry inh	LASV entry inh	Cruzain noTriton	2A StopGo	NS1 function inh	Cruzain Triton	RE007 growth inh
COc1ccc(S(=O)(=O)N2CCC(C(=O)N(CC(C)C)C3CCS(=O)(=O)C3)CC2)cc1OC (stereo not given)	-4%	12%[46.1 µM]	?	·	-13%	·	·	-10%
COCCN1C(=O)c2oc3c(C)cc(C)cc3c(=O)c2C1c1cccc(O)c1 (stereo not given)	4%	5%	-11%	?	-23%	?	0.7%	29%
